From PubChem
TRPML1 inh: inhibitors of human TRPML1 channel | Q9GZU1 | TRPML1-inducible cells, Ca2+ dye fluorescence, FDSS; hits give low values; inhibition of EC80 agonist-evoked calcium signal | activity change, negative = inhibition, % (no concentration beside the values) | 390,000 compounds, 0.02% hits | AID 624415; in the data active means activity change below about -50%; inconclusive means about -30% to -50%; inactive means above about -30%;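 note: stimulus is agonist 54-4 at its EC80 concentration; % is set by controls: 0 for no effect and ±100 for the full control effect; compound concentration not given in the record; the text of the record puts the active cut at -80%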
Target sequence (Q9GZU1 whole entry, looked up): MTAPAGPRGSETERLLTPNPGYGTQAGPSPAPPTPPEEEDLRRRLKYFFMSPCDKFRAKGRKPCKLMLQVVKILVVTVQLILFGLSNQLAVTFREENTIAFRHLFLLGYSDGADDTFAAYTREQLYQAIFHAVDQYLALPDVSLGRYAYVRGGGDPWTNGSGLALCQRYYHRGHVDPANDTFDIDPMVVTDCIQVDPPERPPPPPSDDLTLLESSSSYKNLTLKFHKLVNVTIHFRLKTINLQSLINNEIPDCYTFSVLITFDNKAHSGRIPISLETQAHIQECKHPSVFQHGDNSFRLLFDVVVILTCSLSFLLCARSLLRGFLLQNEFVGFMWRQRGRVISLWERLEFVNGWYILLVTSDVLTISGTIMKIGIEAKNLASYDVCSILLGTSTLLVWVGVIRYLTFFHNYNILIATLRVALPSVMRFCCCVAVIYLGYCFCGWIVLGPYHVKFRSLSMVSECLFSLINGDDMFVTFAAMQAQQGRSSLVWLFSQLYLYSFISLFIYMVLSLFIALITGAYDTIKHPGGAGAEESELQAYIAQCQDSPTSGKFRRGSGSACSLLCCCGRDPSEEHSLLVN
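Tet-induced TRPML1-DL cells loaded with Ca8 no-wash calcium dye were read kinetically on FDSS. Compound addition was followed by EC80 agonist 54-4 (4 uM final); inhibition was read over 110 s.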
Six1-Eya2 inh: blocks human Six1 binding to Eya2. Q15475+O00167. 360,000 compounds, 0.56% hits. activity change, % (no concentration beside the values). AlphaScreen GST-Six1/His-Eya2 binding, biochemical; hits give low values; control for the full effect not named in the record; in the data active = activity change below about -65%; inconclusive = about -30% to -65%; inactive = above about -30%; note: % is set by controls: 0 for no effect and ±100 for the full control effect
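AlphaScreen with GST-Six1 and His-Eya2 (5X mix: 250 nM and 500 nM), glutathione donor and nickel acceptor beads; buffer 50 mM Tris pH 8.0, 300 mM NaCl, 1 mM TCEP; 1 h at 37 C in the dark.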
D2 agonist: human D2 receptor agonism in beta-arrestin assay | 360,000 compounds, 0.084% hits | DiscoveRx PathHunter D2 beta-arrestin, luminescence, 90 min; 100% = 57 uM dopamine signal | activation, % (concentration not given with the values) | P14416; in the data active = activation above about 40%; inconclusive = about 15% to 40%; inactive = below about 15%; note: the text of the record calls up to 30% inactive
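Agonist mode: compounds alone added to overnight-plated D2 PathHunter cells for 90 min at 37 C, with 57 uM final dopamine (EC100) defining full response. Beta-arrestin recruitment detected by chemiluminescent reagent, read after 1 h at ambient temperature.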
CtBP-E1A inh: CtBP/E1A binding inhibition; AlphaScreen GST-E1A/His-CtBP binding, 1536-well; hits give low values; control for the full effect not named in the record; activity change, % (no concentration beside the values); 340,000 compounds, 0.49% hits; AID 651724; in the data active means activity change below about -65%; inconclusive means about -30% to -65%; inactive means above about -30%; note: % is set by controls: 0 for no effect and ±100 for the full control effect
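Steps: dispense buffer (Tris pH 8.0, NaCl 300 mM, TCEP 1 mM, BSA, Tween 20); add 5X protein mix (GST-E1A, His-CtBP, 125 nM each); pin 23 nL compound; 2 h at 37 °C, dark; add 5X beads (50 ug/mL); 1 h; read.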
TRPML1 ag: activates the human TRPML1 channel | Q9GZU1 | TRPML1-expressing cells, Ca2+ dye fluorescence, FDSS; host cell line not named in the record; reference of the full effect not given here | activation, % (concentration not given with the values) | 410,000 compounds, 0.12% hits | AID 624414; in the data active = activation above about 50%; inconclusive = about 30% to 50%; inactive = below about 30%; note: 0% is about no effect; the text of the record puts the active cut at 80%
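Agonist activity was taken from a 110 s kinetic Ca2+ dye read on the FDSS after pinning compounds onto TRPML1-DL cells. The cells were seeded at 1,500/well with Tet inducer, incubated about 16 h, then dye-loaded at room temperature.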
PINK1 expr mod: modulators of PINK1 expression | Potency, µM (highest dose often 76.6 µM), for inactives: at the top dose activation (PINK1 increase), hits mostly activators | AID 624263 | 410,000 compounds, 0.2% hits | PINK1 immunofluorescence, high-content cytometry, 24 h; active = well fitted activation curve with a large enough effect; inconclusive = small, poorly fitted or top-dose-only effect; inactive = flat fitted curve, though single readings scatter; cell line not stated here;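 note: potency is the fitted concentration of half-maximal effect; % of control where 0% means no effect; nearly all actives have a fitted effect of over 65% in size; a mitochondrial uncoupler was the plate control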
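Stable cell line, 250 cells/well, 12 h attachment; compounds pinned at 5 concentrations, 24 h; CCCP control. Fixed with nuclear dye, primary antibodies 12 h at 10 degrees C, secondary plus cell stain; laser-scanning cytometer read.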
The depositor's hits bear a star; ? = inconclusive; nt = no result given; [ ] = dose if it differs, or a comment.

Results follow in this order: TRPML1 inh	Six1-Eya2 inh	D2 agonist	CtBP-E1A inh	TRPML1 ag	PINK1 expr mod
> COc1ccccc1CNC(=O)C1CC(c2ccccc2[N+](=O)[O-])=NO1 (configuration not stated)
  -2	-5	-1.1	0	0.6	0.2%
> COc1ccccc1CCC(=O)OCC(=O)N1c2ccccc2NC(=O)C1(C)C
  2	-15	0.1	nt	-1.4	-0.1%
> O=C(CCC(=O)NCCCc1ccccc1)NCCCc1ccccc1
  -13	1	2.9	9	0.5	2.1%
> Cc1cc(=O)oc2ccc(OCC(=O)N3CCC(C)CC3)cc12
  13	-10	1.8	-6	0.7	0.6%
> Cc1c(O)c(S(=O)(=O)c2ccccc2)c(=O)n(-c2ccccc2)c1-c1ccccc1
  1	-7	-2.9	0	-0.7	-0.8%
> Cn1nc(C(F)(F)F)c(-c2ccccc2)c1NC(=O)c1cccnc1
  42	1	-6.3	nt	-0.3	1.0%
> CCCCc1nc(SCC(=O)N2CCCC2)c2c(=O)n(C)c(=O)n(C)c2n1
  -9	-7	-1.6	-22	-0.4	1.0%
> CC(C)c1nnc(N2C(=O)C(O)=C(C(=O)c3cccs3)C2c2ccccc2)s1 (configuration not stated)
  9	7	-1.6	2	?	0.6%
> O=C(OCn1nnc2ccccc2c1=O)C1CCN(S(=O)(=O)c2cccs2)CC1
  8	-2	-3.6	4	0.0	1.6%
> CCOC(=O)c1ccc(NC(=O)CSc2nccn2Cc2ccc(OC)cc2)cc1
  17	nt	nt	nt	3.2	5.2%
> CC1=CC2=NC(=O)/C(=C\c3cc(C)n(-c4ccccc4F)c3C)C(=N)N2O1
  6	7	-5.8	-11	0.1	2.5%
> COc1ccc2oc(C(=O)NCC3CCCO3)c(C)c2c1 (configuration not stated)
  -3	10	1.1	4	-0.1	-1.4%
> COc1ccc(NC(=S)N2CCCC(c3nc4ccc(C)cc4[nH]3)C2)cc1 (configuration not stated)
  -12	1	1.6	nt	0.7	1.4%
> O=C(CSCc1ccccc1Cl)NCc1ccc(Cl)c(Cl)c1
  14	nt	nt	nt	2.1	2.4%
> COc1cc(NC(=O)COC(=O)CCCC2=NS(=O)(=O)c3ccccc3N2)cc(OC)c1
  3	-10	-6.1	-30	-0.4	-0.4%
> CCN(CC)c1nc2ccccc2n(Cc2cccc(OC)c2)c1=O
  -6	47	-3.1	57	3.4	-0.8%
> O=C(Nc1cc(S(=O)(=O)N2CCCCCC2)ccc1OCC(F)(F)F)c1cnccn1
  29	-2	-2.6	0	2.2	11%
> COc1ccc(CNC2CCCc3ccccc32)cc1OC (configuration not stated)
  -7	0	-0.9	4	-0.8	1.8%
> O=C(CCC1CCCC1)Nc1cc(C(F)(F)F)ccc1N1CCOCC1
  9	5	-3.1	9	2.4	14%
> COc1ccc(CNC(=O)C(c2ccc(C)o2)N(C(=O)c2csnn2)c2ccc(C(C)C)cc2)cc1 (configuration not stated)
  13	-15	-3.1	-8	1.6	-1.4%
> O=C1c2ccccc2C(=O)N1CCCCCc1nc(-c2ccccc2)no1
  8	44	-2.4	13	0.4	0.2%
> COC(=O)C1CCN(C(=O)c2ccc(Cl)c(S(=O)(=O)NCc3ccco3)c2)CC1
  -8	-1	-0.9	12	0.2	0.1%
> C#CCOc1coc(COC(=O)c2ccccc2)cc1=O
  -5	20	-5.3	4	-1.2	-0.5%
> COc1ccc(CCNC2=CC(=O)N(c3ccc(F)cc3)C2=O)cc1
  3	7	-5.9	-15	0.8	1.6%
> O=C(OCc1ccc(COC(=O)c2ccccn2)cc1)c1ccccn1
  8	4	-1.9	1	-0.8	-1.5%
> NC(=O)c1ccc(C2SCC(=O)N2Cc2ccccc2)cc1 (configuration not stated)
  47	9	-4.0	20	-0.3	-0.9%
> Cc1ccc(C(=O)Nc2ccc(O)cc2C(=O)O)cc1C
  -7	?	-0.7	-9	0.2	5.3%[38.3 µM]
> CCOc1ccc2nc(N(Cc3ccccc3)C(=O)CCNC(C)=O)sc2c1
  -19	-11	-1.9	-4	-0.6	4.4%
> COc1ccc(-c2noc(C3CCCN(C(=O)c4cccs4)C3)n2)cc1 (configuration not stated)
  -13	-2	-1.3	-5	2.0	3.9%[38.3 µM]
> CSC(=NNC(=O)c1ccccc1O)SC
  11	0	-4.9	4	-1.6	2.3%
> COc1ccc(C)cc1Nc1n[n+](-c2ccccc2)c(-c2cc(OC)c(OC)cc2Br)s1
  -6	-13	-4.8	12	0.9	?
> Cc1cc(C)n(CCCNC(=O)C(C)(C)Oc2ccc(Cl)cc2)n1
  8	14	-0.1	-5	1.0	-1.1%
> CN1CCN(S(=O)(=O)c2ccc(=O)[nH]c2)CC1
  -5	7	2.0	4	0.4	?
> COC(=O)/C=C/C(=O)N1CCN(c2ccccc2)CC1
  17	0	-4.0	-2	2.6	1.0%
> CC(NC(=O)CNC(=O)c1sc2ccccc2c1Cl)c1cccnc1 (configuration not stated)
  -4	-12	-1.4	-5	0.0	1.8%
> O=C(O)CC(NS(=O)(=O)c1c(F)cc(F)cc1Br)c1ccccc1Cl (configuration not stated)
  5	6	1.8	5	0.0	0.7%
> CN(C)C(/C=C/Nc1ccc(C#N)cc1)=C(C#N)C#N
  -11	3	0.5	45	-0.2	-3.8%[38.3 µM]
> COCCCNC(=O)c1c(N)n(-c2ccc(S(N)(=O)=O)cc2)c2nc3ccccc3nc12
  5	-10	2.8	0	-0.6	9.4%
> O=C(c1ccc(-c2cccc(C(F)(F)F)c2)o1)N1CCOCC1
  6	-4	-0.3	-1	2.2	2.1%
> CC(=O)c1sc(NC(=O)COc2ccc(Cl)cc2Cl)nc1C
  9	5	0.5	nt	0.9	1.1%
> Nc1ncc(-n2cncn2)c(-c2ccc(Cl)cc2)n1
  19	3	-4.4	-22	0.3	-0.2%
> CCSc1nc2c(c(=O)n1CC)SC(C)C2 (configuration not stated)
  -9	-4	-2.1	3	-0.7	0.1%[38.3 µM]
> CCOC(=O)Nc1ccc2c(c1)C(=NNC(=S)NC)c1ccccc1-2
  9	?	-6.0	-20	0.6	5.0%
> Cc1nn(C)c(Cl)c1S(=O)(=O)N1CCC(CO)(CCc2ccccc2)CC1
  8	6	-1.2	-1	-0.6	1.0%
> Cc1cccc(C2c3[nH]c4ccccc4c3CCN2C(=O)c2ccc(=O)[nH]c2)n1 (configuration not stated)
  21	-6	-3.7	-14	4.2	1.0%
> O=C(Nc1cccc(S(=O)(=O)N2CCOCC2)c1)C1CCCN(C(=O)c2ccc(Cl)cc2)C1 (configuration not stated)
  nt	-4	?	0	nt	3.2%
> Cc1cc(C)cc(NC(=O)N2CCNC(=O)C2CC(=O)Nc2cc(Cl)ccc2Cl)c1 (configuration not stated)
  1	-4	7.4	-3	-0.1	-0.7%
> O=C(N1CCCCCC1)N1CCN(S(=O)(=O)c2cccc([N+](=O)[O-])c2)CC1
  11	18	2.2	0	0.1	-1.2%
> Cc1ccc(-c2nn(-c3ccccn3)c(=O)c3ccccc23)cc1C
  nt	1	2.9	3	nt	1.5%
> O=C(Cc1cscn1)c1ccc(O)cc1O
  12	-6	-4.0	-2	0.1	3.0%
> Cc1ccc(S(=O)(=O)N2CCC(C(=O)Nc3ccc(S(=O)(=O)N4CCCC4)cc3)CC2)cc1
  2	5	9.6	-23	1.0	-1.9%
> COC(=O)COc1ccc2c(=O)c(Oc3ccccc3)c(C)oc2c1
  -8	4	-2.0	-5	0.4	4.4%
> Nc1nc2c(nc(SCc3ccccc3Br)n2C2OC(CO)C(O)C2O)c(=O)[nH]1 (configuration not stated)
  -9	2	10	nt	-0.7	-1.0%
> COCCNC(=O)/C(C#N)=C1\N=C(NC(=O)c2ccco2)c2ccccc21
  -7	-9	-2.1	0	-0.3	0.3%
> COC(=O)c1ccc(CN(c2ccc(OC)cc2)S(=O)(=O)c2ccccc2)cc1
  35	0	-1.0	3	0.7	4.3%
> CN(CC(=O)Nc1ccc(F)cc1)C(=O)CN1C(=O)NC2(CCCCC2)C1=O
  3	3	2.4	5	1.9	1.3%
> CCS(=O)(=O)c1ccc(C(=O)Nc2cccc(Cl)c2)c(Cl)c1Cl
  -2	-4	-0.5	1	-0.8	-0.1%
> CCOCCCNC(=O)C(c1ccc(C)cc1)N(Cc1cccs1)C(=O)c1ccccn1 (configuration not stated)
  -14	-22	-2.7	0	0.5	1.4%
> COCC1CCCCN1C(=O)c1cccc(OC2CCN(C(=O)C3CC3)CC2)c1 (configuration not stated)
  -8	7	0.3	3	-0.4	-2.3%

Quoted at random: 5 compounds from above.
Results follow in this order: TRPML1 inh	Six1-Eya2 inh	D2 agonist	CtBP-E1A inh	TRPML1 ag	PINK1 expr mod
> Cc1cccc(C2c3[nH]c4ccccc4c3CCN2C(=O)c2ccc(=O)[nH]c2)n1 (configuration not stated)
  21	-6	-3.7	-14	4.2	1.0%
> Cc1cc(=O)oc2ccc(OCC(=O)N3CCC(C)CC3)cc12
  13	-10	1.8	-6	0.7	0.6%
> Cc1cc(C)n(CCCNC(=O)C(C)(C)Oc2ccc(Cl)cc2)n1
  8	14	-0.1	-5	1.0	-1.1%
> O=C1c2ccccc2C(=O)N1CCCCCc1nc(-c2ccccc2)no1
  8	44	-2.4	13	0.4	0.2%
> O=C(Nc1cccc(S(=O)(=O)N2CCOCC2)c1)C1CCCN(C(=O)c2ccc(Cl)cc2)C1 (configuration not stated)
  nt	-4	?	0	nt	3.2%
